gsp antagonist: qHTS for Antagonists of gsp, the Etiologic Mutation Responsible for Fibrous Dysplasia/McCune-Albright Syndrome: qHTS; gsp-mutant cells, cAMP HTRF, 30 min; control for the full effect not named in the record; Potency, µM (series often up to 76.9 µM), for the others: at the top dose activity change, negative = inhibition, actives largely listed as inhibitors; 0.4% of 340,000 active; active = falling curve of any shape with a large fitted effect; inconclusive = falling curve, mostly with a smaller effect; inactive = flat or rising curve; cell line not stated here;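 note: intracellular cAMP measured with PDE inhibitor Ro 20-1724 present during compound exposure; potency is the fitted concentration of half-maximal effect; % is set by controls: 0 for no effect and ±100 for the full control effect; nearly all actives have a fitted effect of over 65% in size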
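G418-selected cells were plated in DMEM/10% FBS for 16-24 h at 37C, then treated with compounds plus the PDE inhibitor […] (300 uM solution added) for 30 min at 37C. Intracellular cAMP was measured by HTRF after 30 min lysis at room temperature.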
Menin-MLL FL inh: qHTS Assay for Inhibitors Targeting the Menin-MLL Interaction in MLL Related Leukemias: Competition With Fluorescein Labeled MLL-derived Peptide. FP activity change, % at 61.4 µM. 290,000 tested, under 10 active. AID 1766, 2009. Fluorescence polarization, fluorescein-MLL peptide displacement from menin; inconclusive = falling polarisation curve, or a change in total fluorescence; inactive = total fluorescence flat and polarisation flat or rising; no compound was filed as active; the % refers to the polarisation; negative = inhibition;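 note: % of control where 0% means no effect; inhibitors lower the polarisation; unlabelled MLL peptide was the positive control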
gsp ag: qHTS for Agonist of gsp, the Etiologic Mutation Responsible for Fibrous Dysplasia/McCune-Albright Syndrome: qHTS; gsp mutant cells, cAMP HTRF, 30 min; control for the full effect not named in the record; Potency, µM (series often up to 76.9 µM), without a hit: at the highest dose activation (cAMP increase), most hits filed as activators; 0.13% of 340,000 active; active = well fitted activation curve with a large enough effect; inconclusive = small, poorly fitted or top-dose-only effect, or another doubt; inactive = no such curve, though single readings can be large or run the other way; cell line not stated here;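 note: phosphodiesterase inhibitor Ro 20-1724 added with compounds to block cAMP breakdown; potency is the fitted concentration of half-maximal effect; nearly all actives have a fitted effect of over 60% in size; about a fifth of the inactives were tested at one dose only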
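Cells in DMEM/10% FBS with G418 were pretreated with compounds in DMSO plus […] (300 uM stock) for 30 min at 37C. cAMP was measured by HTRF (cAMP-d2 plus anti-cAMP antibody-K) after 30 min at room temperature.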
TRPML1 agonist: qHTS for Agonists of the Human Mucolipin Transient Receptor Potential 1 (TRPML1) | TRPML1-expressing cells, Ca2+ dye fluorescence, FDSS; host cell line not named in the record; reference of the full effect not given here | 0.12% of 410,000 active | activation, % (no concentration beside the values) | Mucolipin-1 (Homo sapiens), Q9GZU1; in the data active = activation above about 50%; inconclusive = about 30% to 50%; inactive = below about 30%; note: 0% is about no effect; the text of the record puts the active cut at 80%
Target sequence (Q9GZU1 whole entry, looked up): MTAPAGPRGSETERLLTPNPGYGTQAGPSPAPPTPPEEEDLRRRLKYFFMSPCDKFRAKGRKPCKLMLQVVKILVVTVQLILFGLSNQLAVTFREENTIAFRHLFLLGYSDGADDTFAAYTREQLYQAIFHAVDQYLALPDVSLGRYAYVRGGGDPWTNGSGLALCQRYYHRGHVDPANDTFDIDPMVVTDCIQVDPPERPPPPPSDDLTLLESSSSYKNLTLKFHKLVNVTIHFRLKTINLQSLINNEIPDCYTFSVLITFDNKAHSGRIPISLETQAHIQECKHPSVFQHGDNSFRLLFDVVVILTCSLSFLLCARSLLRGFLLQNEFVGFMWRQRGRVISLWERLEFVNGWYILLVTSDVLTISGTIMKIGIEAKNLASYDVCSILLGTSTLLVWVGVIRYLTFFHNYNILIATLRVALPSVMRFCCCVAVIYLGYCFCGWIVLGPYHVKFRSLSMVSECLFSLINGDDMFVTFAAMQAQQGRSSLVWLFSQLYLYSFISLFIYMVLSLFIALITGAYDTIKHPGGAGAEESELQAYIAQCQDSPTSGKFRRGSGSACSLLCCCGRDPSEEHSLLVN
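Tet-induced TRPML1-DL cells, 1,500 per well, cultured overnight, were loaded with a no-wash Ca2+ dye for 45–90 min. Calcium fluorescence was recorded on the FDSS for 110 s after compound addition, before the EC80 agonist (4 uM 54-4) was added.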
ClpP mod: qHTS Assay for Activators of ClpP. purified B. subtilis ClpP, FRET peptide cleavage, 20 min. Potency, µM (highest dose often 57.5 µM), for inactives: top-dose activity change, negative = active. 1.9% of 340,000 active. AID 651965, 2013; active = well fitted falling curve with a large enough effect; inconclusive = small, poorly fitted or top-dose-only effect; inactive = no such curve, though single readings can be large or run the other way; note: potency is the fitted concentration of half-maximal effect; the source files actives as falling curves though it sought activators and does not explain the sign; nearly all actives have a fitted effect of over 65% in size; many hits overshoot -100%
Target sequence (P80244 whole entry, looked up): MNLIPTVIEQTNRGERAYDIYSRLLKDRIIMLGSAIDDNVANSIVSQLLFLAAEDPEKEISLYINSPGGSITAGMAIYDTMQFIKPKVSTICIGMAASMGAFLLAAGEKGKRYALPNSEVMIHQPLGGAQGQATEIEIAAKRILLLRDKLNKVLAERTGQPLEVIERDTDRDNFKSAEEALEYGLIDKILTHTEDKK
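FRET quenching reversal measured ClpP activation: 10 microg/mL B. subtilis ClpP at pH 8 with the FRET-FV decapeptide, read at 430 nm after 320 nm excitation. The 20-min minus 0-min signal was scaled between DMSO/no-enzyme wells and ADEP (5.8 microM final).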
TRPML1 inh: qHTS for Inhibitors of the Human Mucolipin Transient Receptor Potential 1 (TRPML1) | Mucolipin-1 (Homo sapiens), Q9GZU1 | TRPML1-inducible cells, Ca2+ dye fluorescence, FDSS; active compounds read low; inhibition of EC80 agonist-evoked calcium signal | 0.02% of 390,000 active | activity change, negative = inhibition, % (test concentration not listed); in the data active means activity change below about -50%; inconclusive means about -30% to -50%; inactive means above about -30%;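 note: stimulus is agonist 54-4 at its EC80 concentration; % is set by controls: 0 for no effect and ±100 for the full control effect; compound concentration not given in the record; the text of the record puts the active cut at -80%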
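Calcium fluorescence in TRPML1-DL cells induced overnight with Tet: a 110 s read after compound pin addition, then a 110 s antagonist read after challenge with 54-4 at 4 uM final (EC80).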
* = called active by the depositor; u = inconclusive; x = not tested or not shown; & = joins results of further samples; [ ] = remark or other dose.

#	Molecule	gsp antagonist	TRPML1 inh	Menin-MLL FL inh	TRPML1 agonist	ClpP mod	gsp ag
1	COCCNC(=O)C(c1ccc(F)cc1)N(C(=O)CCC(=O)Nc1ccccn1)c1ccc(C)cc1 (centres undefined)	6%	16	4.0	-0.2	x	20%
2	Cc1ccc(Nc2nc(N)c([N+](=O)[O-])c(NCCO)n2)cc1C	14%	2	4.7	-0.3	-0.7%	-11%[15.4 µM]
3	CCOC(=O)C1=C(Nc2ccccc2)CC(C)(O)C(C(=O)OCC)C1c1ccc(Br)cc1 (centres undefined)	-8%	8	x	0.4	-6.4%	2%
4	CC(=O)c1ccc(N2CCN(C(=O)C3CCCN(S(=O)(=O)c4cnc[nH]4)C3)CC2)cc1 (centres undefined)	-2%	-6	5.9	1.2	-9.1%	-7%
5	CC1(C)C2CCC1(CS(=O)(=O)Nc1ccc(S(=O)(=O)NC3CCCCC3)cc1)C(=O)C2 (centres undefined)	-16%	-6	2.5	0.8	1.8%	-9%
6	O=C(O)C1CSC(c2ccco2)N1 (centres undefined)	0%	-2	u	-0.5	x	42%[15.4 µM]
7	COCCN(C(=O)COC(=O)C1CC1C)c1c(N)n(Cc2ccccc2)c(=O)[nH]c1=O (centres undefined)	-1%	-10	x	1.4	-4.2%	-22%
8	CCN1C(=O)/C(=C/c2nc3ccccc3c(=O)n2-c2ccccc2)c2ccccc21	4%	5	u	-1.7	1.6%	-67%[inhibitor]
9	Cc1ccc2nc(Nc3ccc(C)c(F)c3)c3nncn3c2c1	x	8	x	1.1	-17%	x
10	COc1cc(OC)c(NC(=O)CN(C)S(=O)(=O)c2ccc3[nH]c(=O)oc3c2)cc1Cl	-1%	-2	x	-0.2	0.8%	8%
11	CC(C)C(Nc1ccc(C(F)(F)F)cc1[N+](=O)[O-])C(=O)O (centres undefined)	-8%	46	3.5	-0.3	x	3%
12	CC(C)CN(C(=O)CN1C(=O)C2CCCCC2C1=O)c1c(N)n(Cc2ccccc2)c(=O)[nH]c1=O (centres undefined)	16%	12	x	-0.2	0.0%	-15%
13	CC(=O)C1CCCN(C(=O)c2ccc3nc(Cc4cccc(Cl)c4)oc3c2)C1 (centres undefined)	-13%	15	x	1.1	1.3%	-6%
14	O=C(C1CCCN(S(=O)(=O)c2cnc[nH]2)C1)N1CC(=O)N(CCc2ccccc2)C(=O)C1 (centres undefined)	6%	-8	-0.3	-0.7	3.1%	12%
15	CN1C(=O)N(C)C(c2cccc([N+](=O)[O-])c2)C2=C1CCCC2=O (centres undefined)	7%	-7	-2.4	0.4	x	u
16	CC(CCc1ccccc1)NC(=O)COC(=O)c1cccn1C (centres undefined)	5%	1	x	0.6	-0.8%	-29%
17	O=C(N/C(=C/c1cccs1)C(=O)N1CCOCC1)c1ccccc1	13%	2	-0.4	0.2	x	-11%[15.4 µM]
18	Cc1cc(NC(=O)c2ccc(OCC3CCCO3)cc2)ccc1Br (centres undefined)	x	-2	x	0.3	2.5%	7%
19	O=C1NC(=S)SC1=C1CCCCCC1	1%	-16	u	-1.0	-1.9%	u
20	O=C(CN1C(=O)CSc2cc(S(=O)(=O)N3CCCCCC3)ccc21)NCCc1ccccc1	u	19	0.6	0.8	-0.9%	4%[15.4 µM]

Single entries from the results shown:
Under gsp antagonist, entry 15 has the entry 7%
Under ClpP mod, entry 7 has the entry -4.2%

Returning to the listing; the two compounds before the break are reprinted first.
#	Molecule	gsp antagonist	TRPML1 inh	Menin-MLL FL inh	TRPML1 agonist	ClpP mod	gsp ag
19	O=C1NC(=S)SC1=C1CCCCCC1	1%	-16	u	-1.0	-1.9%	u
20	O=C(CN1C(=O)CSc2cc(S(=O)(=O)N3CCCCCC3)ccc21)NCCc1ccccc1	u	19	0.6	0.8	-0.9%	4%[15.4 µM]
21	Nc1cc2c(cc1N)-c1ccccc1C2	-4%	-2	x	1.2	x	1%
22	COc1cc(/C=C/C(=O)OCC(=O)NC(=O)NC2CCCCC2)ccc1OC(F)F	-14%	11	-0.1	1.0	u	27%
23	CCOC(=O)C(CC)n1cnc2c(nnn2-c2ccccc2)c1=O (centres undefined)	-5%	4	6.2	0.1	-0.9%	-13%
24	COc1ccc(S(=O)(=O)N2CCN(Cc3c[nH]c4ccccc34)CC2)cc1	7%	10	0.0	0.2	u	-12%
25	Cc1ccc(NC(=O)c2ccc(C)c(S(=O)(=O)N3CCOCC3)c2)nc1	8%	1	x	-0.2	-1.2%	2%
26	COc1ccc(S(=O)(=O)N2CCN(Cc3ccc4c(c3)OCO4)CC2)cc1OC	x	-6	x	-0.3	1.0%	x
27	CCn1c(CN2CCCCCC2=O)nnc1SCc1cnc(-c2ccccc2)s1	-7%	10	-1.2	1.8	-4.1%	11%
28	COc1ccc(OC)c(NC(=O)CN2C(=O)C(C)N(c3ccc(C)cc3)C2=O)c1 (centres undefined)	u	-20	x	2.9	1.7%	1%
29	Cc1cccc(C)c1N1CCN(S(=O)(=O)N(C)C)CC1	7%	-1	-23	0.9	x	-29%
30	COc1ccc(S(=O)(=O)N(C)C[C@@H]2OCc3cn(nn3)CCCC(=O)N([C@@H](C)CO)C[C@H]2C)cc1	x	12	x	-0.2	0.5%	u
31	O=C(CSc1nnc(CNC(=O)c2c(F)cccc2Cl)o1)NCCc1ccccc1	11%	-1	x	-1.0	0.3%	0%
32	CCn1c(SCC(=O)Nc2ccccc2C(=O)OC)nnc1-c1ccc(N)cc1	-3%	3	2.4	0.2	-4.7%	u
33	COC(=O)C1=C(C)NC(=S)N(C(C)=O)C1c1ccccc1 (centres undefined)	5%	-4	3.7	0.5	-1.7%	24%
34	COC(=O)CN(c1nc(C)cc(OC)n1)S(=O)(=O)c1ccccc1	8%	-6	2.5	2.7	1.5%	-41%[inhibitor]
35	Cc1ccc(NC2CCCN(C(=O)CCn3nccc3C)C2)cc1C (centres undefined)	-4%	3	x	-0.4	-0.9%	-6%
36	CC1Oc2ccccc2N(CC(=O)NCc2ccccc2)C1=O (centres undefined)	2%	-7	-8.3	1.5	-6.0%	-67%[inhibitor]
37	CCCOc1ccc(S(=O)(=O)Nc2ccccn2)c2ccccc12	0%	7	-3.1	0.0	-1.7%	-1%[15.4 µM]
38	CCC1(CC)NC(=O)N(CC(=O)OCC(=O)NC(=O)c2ccccc2OC)C1=O	11%	-4	x	2.2	x	31%[15.4 µM]
39	CCN1C(=O)[C@@H]2[C@H](C1=O)[C@@H]1C(=O)Nc3ccccc3C(=O)N1[C@@H]2c1ccc(Br)cc1	-4%	0	x	0.3	-5.3%	u
40	CC(/C=C/c1cccc([N+](=O)[O-])c1)=N/NC(=O)c1cccnc1	1%	44	1.3	0.1	0.9%	4%
41	CCOC(=O)c1c2n(c3c(NCc4ccccc4)ncnc13)CCCC2	-13%	-8	-1.6	0.4	-2.5%	-12%
42	O=C1N/C(=N/O)S/C1=C/c1cccnc1	-7%	9	1.7	0.9	0.5%	u
43	CCOC(=O)Cn1nc(C)c(NC(=O)COc2ccc(C)c(C)c2)c1C	8%	-9&3	-0.9	-0.7&0.8	0.0%&0.6%	-4%
44	CC(NC(=O)c1ccc(F)cc1)C1CC2CCC1C2 (centres undefined)	-6%	3	-2.4	-0.8	x	4%[15.4 µM]
45	NS(=O)(=O)c1ccc(CCNC(=O)C(=O)NCC2OCCN2S(=O)(=O)c2cc(F)ccc2F)cc1 (centres undefined)	2%	2	2.9	-0.2	-1.2%	-5%
46	O=C(CSc1nnc(COc2ccc3c(c2)CCCC3)o1)Nc1ccc(F)cc1	0%	10	0.1	2.2	1.1%	24%
47	Cc1ccc(C)c(S(=O)(=O)NC(Cc2c[nH]c3ccccc23)C(=O)O)c1 (centres undefined)	-9%	-5	-2.2	1.0	x	u
48	O=C(O)CC(c1ccc(C(F)(F)F)cc1)N1Cc2ccccc2C1=O (centres undefined)	3%	9	3.0	0.8	0.8%	-22%
49	CC(C)/C=C/C(=O)N1CCC(N2CCC(C(=O)NCC3CCCO3)CC2)CC1 (centres undefined)	x	2	x	-0.2	-0.1%	-148%[inhibitor]
50	COc1ccccc1N1CCN(C(=O)c2ccccc2NC(=O)C2CCCCC2C(=O)O)CC1 (centres undefined)	1%	-5	4.0	-0.3	u	-3%
51	COc1ccc(-c2nc3c4ccccc4n(CC(=O)N4CCN(c5ccccc5F)CC4)c(=O)n3n2)cc1	x	7	x	0.8	-2.2%	x
52	O=C(O)COc1ccccc1/C=N/NC(=O)CNC(=O)c1ccc(F)cc1	-24%	x	0.8	x	-4.3%	u
53	CC(/C=C1\SC(=S)N(NS(=O)(=O)c2ccccc2)C1=O)=C\c1ccccc1	-17%	-27	2.8	-0.2	x	-10%[15.4 µM]
54	COc1ccc(-c2[nH]ncc2CNC(C)c2cn(C)nc2C)c(F)c1 (centres undefined)	4%	-14	-1.8	-0.2	0.1%	-4%
55	Cc1cccc(NNC(=O)C(=O)NNc2cccc(C)c2)c1	10%	-6	-0.3	-1.4	2.1%	20%
56	Cc1ccc(/C=N/NC(=O)c2ccc(-c3ccccc3)cc2)o1	u	19	1.2	-0.4	x	19%[15.4 µM]
57	O=C(Nn1cnnc1)c1cc2c(s1)CCCC2	4%	8	3.0	0.8	-2.0%	-22%
58	CN(C(=O)COC(=O)c1sc2ccccc2c1Cl)C1CCCCC1	3%	5	0.0	2.3	-5.7%	12%
59	O=S(=O)(c1ccccc1)c1nnn2c1nc(NCc1ccccc1)c1cc(Cl)ccc12	x	9	x	-0.4	u	x
60	CN1CCN(c2ccccc2NS(=O)(=O)c2ccc3c(c2)CCN3C(=O)C2CCC2)CC1	23%	8	x	0.3	-1.2%	19%
61	COc1nnc(-c2ccc(N3CCCCC3)c(NC(=O)COc3ccccc3)c2)c2ccccc12	-12%	x	x	x	0.7%	20%
62	Brc1ccc2nc(N3CCCC3)sc2c1	5%	-3	-5.8	12	x	5%[15.4 µM]
63	O=C(CNC(=S)N(Cc1ccccc1)Cc1cccnc1)NC1CCCC1	11%	-9	0.6	0.4	-2.3%	9%[15.4 µM]
64	CN(C)C(=O)CCc1ccc2c3c([nH]c2c1)[C@]1(C)[C@@H](C(=O)N2CCOCC2)C[C@H](CC(=O)NCCCn2ccnc2)C(=O)N1CC3	11%	-2	x	-0.1	-4.4%	x
65	COCCNC(=S)Nc1cccc2cnccc12	14%	-7	-5.5	0.0	0.0%	u
66	O=C(Nc1ccc(N2CCN(Cc3ccccc3)CC2)cc1)c1ccco1	4%	-9	x	0.3	-0.6%	5%
